Source: PubChem BioAssay
DUX4 inh: DUX4-mediated transcription inhibition; activity change, negative = inhibition, % (test concentration not listed); 37,000 tested, 0.8% active; 293T-iDUX4 ZSCAN4-Gaussia luciferase reporter, 24 h; stronger effect = lower value; AID 1224904;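 active means -10% or lower and over 25 points stronger than a control reporter; inconclusive means -10% or lower with a smaller gap; inactive means above -10%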;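 further: 0% = median of neutral control wells and -100% = median of positive control wells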
DUX4 inh difference: second read-out of DUX4 inh, no call of its own (marks repeat the call); Gaussia minus Italica difference, %; measured here: selective DUX4 reporter inhibition;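 worked out from the two reporters; negative = selective loss of the DUX4 reporter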
DUX4 inh control: second read-out of DUX4 inh, no call of its own (marks repeat the call); activity change, negative = inhibition, %; measured here: Italica tet-on control reporter;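 0 = neutral control and -100 = positive control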
* hit, by the source's call; ? = inconclusive; · = not tested or not shown.

Start of the data: the first 2 compounds, ahead of the listing:
DUX4 inh	DUX4 inh difference	DUX4 inh control	structure
?	6	4.9	O=C(Nc1cccc(F)c1)N1C[C@@H]2N[C@H](C1)C2c1ccc(-c2cccnc2)cc1 (some centres not stated)
13	6	6.9	CC(=O)N1CC[C@@H]2[C@H]1c1cc(C#Cc3cccnc3)ccc1N[C@@H]2CO

Results, from the first entry:
DUX4 inh	DUX4 inh difference	DUX4 inh control	structure
?	6	4.9	O=C(Nc1cccc(F)c1)N1C[C@@H]2N[C@H](C1)C2c1ccc(-c2cccnc2)cc1 (some centres not stated)
13	6	6.9	CC(=O)N1CC[C@@H]2[C@H]1c1cc(C#Cc3cccnc3)ccc1N[C@@H]2CO
11	0	11	CCC(=O)N1CCCCN2[C@H](CO)[C@@H](c3ccc(-c4ccc(F)cc4)cc3)[C@H]2C1
-2	-1	-1.4	CO[C@@H]1CN(C)C(=O)c2ccc(NC(=O)C3CCC3)cc2OC[C@@H](C)N(Cc2ccncc2)C[C@H]1C
1	-2	3.2	COc1cccc(C#Cc2ccc([C@H]3[C@@H](C#N)N(C(=O)c4ccccn4)[C@@H]3CO)cc2)c1
4	4	0.0	O=C(C[C@@H]1CC[C@H]2[C@@H](COC[C@@H](O)CN2C(=O)Nc2ccc(Cl)c(Cl)c2)O1)NC1CCC1
7	9	-1.1	CCS(=O)(=O)Nc1ccc2c(c1)C(=O)N(C)C[C@H](OC)[C@@H](C)CN(CC1CCCCC1)[C@H](C)CO2
-7	-4	-3.6	O=C(O)[C@@H]1[C@@H](CO)[C@@H]2Cn3c(ccc(-c4cncnc4)c3=O)[C@@H]2N1C(=O)C1CCC1
10	-4	13	COc1ccc2c3c(n(C)c2c1)[C@@H](CO)N(C(=O)c1ccccn1)CC31CCN(C)CC1
?	·	·	O=C(CCN1CCCCC1)N[C@H]1CC[C@H](CC(=O)N2CCC(Cc3ccccc3)CC2)O[C@@H]1CO
5	-3	7.5	CNC(=O)C[C@H]1CC[C@@H]2[C@H](COC[C@H](O)CN2S(=O)(=O)c2ccc(Oc3ccccc3)cc2)O1
?	·	·	COc1ccc2c3c([nH]c2c1)[C@@H](CO)N(Cc1ccccc1)CC31CN(S(C)(=O)=O)C1

Eight entries already listed, sorted by heavy-atom count, lowest first:
DUX4 inh	DUX4 inh difference	DUX4 inh control	structure
13	6	6.9	CC(=O)N1CC[C@@H]2[C@H]1c1cc(C#Cc3cccnc3)ccc1N[C@@H]2CO
11	0	11	CCC(=O)N1CCCCN2[C@H](CO)[C@@H](c3ccc(-c4ccc(F)cc4)cc3)[C@H]2C1
-7	-4	-3.6	O=C(O)[C@@H]1[C@@H](CO)[C@@H]2Cn3c(ccc(-c4cncnc4)c3=O)[C@@H]2N1C(=O)C1CCC1
?	·	·	COc1ccc2c3c([nH]c2c1)[C@@H](CO)N(Cc1ccccc1)CC31CN(S(C)(=O)=O)C1
4	4	0.0	O=C(C[C@@H]1CC[C@H]2[C@@H](COC[C@@H](O)CN2C(=O)Nc2ccc(Cl)c(Cl)c2)O1)NC1CCC1
5	-3	7.5	CNC(=O)C[C@H]1CC[C@@H]2[C@H](COC[C@H](O)CN2S(=O)(=O)c2ccc(Oc3ccccc3)cc2)O1
?	·	·	O=C(CCN1CCCCC1)N[C@H]1CC[C@H](CC(=O)N2CCC(Cc3ccccc3)CC2)O[C@@H]1CO
-2	-1	-1.4	CO[C@@H]1CN(C)C(=O)c2ccc(NC(=O)C3CCC3)cc2OC[C@@H](C)N(Cc2ccncc2)C[C@H]1C

Carrying on:
DUX4 inh	DUX4 inh difference	DUX4 inh control	structure
0	-2	1.7	C[C@H](CO)N1C[C@H](C)[C@@H](CN(C)C(=O)C2CCCCC2)OCCCC[C@H](C)Oc2ccc(N(C)C)cc2C1=O
7	-7	14	O=C1CN(Cc2ccccc2)C[C@@H]2[C@H](c3ccc(-c4cccnc4)cc3)[C@@H](CO)N12
-2	-4	1.8	CO[C@@H]1CN(C)C(=O)c2ccc(NS(C)(=O)=O)cc2OC[C@H](C)N(C(=O)c2ccc3c(c2)OCO3)C[C@H]1C
3	-1	4.5	Cc1cccc(-c2ccc([C@H]3[C@H]4CN(C(=O)c5ccncc5)CCCCN4[C@H]3CO)cc2)c1
6	4	2.6	CCCNC(=O)N1[C@H](CO)[C@H](c2ccccc2)C12CN(C(=O)CC)C2
0	-1	0.7	C[C@H](CO)N1C[C@H](C)[C@@H](CN(C)Cc2cccc3c2OCCCO3)OCc2cn(nn2)CCCC1=O
4	2	1.4	COc1ccc(-c2ccc3n(c2=O)C[C@@H]2[C@@H](CO)[C@H](C(=O)NCC4CC4)N(C(=O)NC(C)C)[C@H]32)cc1
1	-4	5.0	O=C(O)C[C@H]1C[C@@H]2c3cc(NC(=O)Nc4ccccc4)ccc3O[C@@H]2[C@@H](CO)O1
-1	-2	1.1	COc1ccc(S(=O)(=O)N(C)C[C@@H]2OCc3cn(nn3)CCCC(=O)N([C@H](C)CO)C[C@H]2C)cc1
0	-1	0.6	O=C(Nc1cccc(Cl)c1)N[C@H]1CC[C@H](CCn2cc(Cc3ccccc3)nn2)O[C@H]1CO
12	4	8.2	CCS(=O)(=O)N1CCCCN2[C@@H](CO)[C@@H](c3ccc(-c4ccccc4)cc3)[C@@H]2C1
1	-1	1.9	CCCNC(=O)N1[C@@H](C#N)[C@H](c2ccccc2)[C@@H]1CO

Additional results.
DUX4 inh	DUX4 inh difference	DUX4 inh control	structure
0	2	-2.4	CCC(=O)N1[C@@H]2c3ccc(C4=CCCC4)c(=O)n3C[C@H]1[C@H](CO)[C@H]2C(=O)N[C@@H](C)c1ccccc1
-1	2	-3.7	CO[C@H]1CC[C@@H]2CCN(C)C(=O)[C@@H](C)[C@H](OC)CN(C)C(=O)c3cc(C#N)ccc3OC[C@@H]1O2
9	-1	9.7	OC[C@@H]1[C@@H](c2ccc(Br)cc2)[C@@H]2CN(Cc3ccccn3)CCCCN12
-3	-5	2.0	COC(=O)C[C@@H]1CC[C@H]2[C@H](COc3ccc(NC(=O)c4cnccn4)cc3C(=O)N2C)O1
2	0	2.2	C[C@H]1CN([C@@H](C)CO)C(=O)Cc2cc(NS(C)(=O)=O)ccc2O[C@H]1CN(C)C(=O)Nc1ccccc1
-51*	-34*	-17*	OC[C@H]1[C@@H](c2ccc(C#Cc3cccnc3)cc2)[C@@H]2CN(Cc3ccccc3F)CCCCN12
-1	-3	2.0	O=C(C[C@H]1C[C@H]2c3cc(NC(=O)Nc4ccccc4)ccc3O[C@H]2[C@@H](CO)O1)NCCN1CCCCC1
23	0	24	CN1CCCCN2[C@H](CO)[C@@H](c3ccc(-c4cccnc4)cc3)[C@@H]2C1
1	0	1.5	CC(C)C#Cc1ccc([C@@H]2[C@@H](C#N)N(C(=O)c3ccccn3)[C@@H]2CO)cc1
4	3	0.7	CC=Cc1ccc2n(c1=O)C[C@H]1[C@H](CO)[C@@H](C(=O)NCCC)N(C(=O)c3cccnc3)[C@@H]21 (mixture of isomers)
7	-1	8.3	C[C@@H](NC(=O)C[C@H]1C[C@H]2c3cc(NC(=O)CN(C)C)ccc3O[C@H]2[C@H](CO)O1)c1ccccc1
3	-7	9.7	CO[C@@H]1CN(C)C(=O)c2cc(NC(=O)C3CCOCC3)ccc2OC[C@H](C)NC[C@H]1C

(further entries)
DUX4 inh	DUX4 inh difference	DUX4 inh control	structure
-1	-1	0.2	COC(=O)C[C@@H]1CC[C@H]2[C@@H](COc3ccc(NC(=O)c4ccc(C(F)(F)F)cc4)cc3C(=O)N2C)O1
7	4	2.4	CC(=O)N1[C@@H]2Cn3c(ccc(-c4ccccc4F)c3=O)[C@H]1[C@@H](C(=O)N1CCOCC1)[C@@H]2CO
3	1	1.5	O=C(Nc1cccc(Cl)c1)N1C[C@@H]2[C@H](c3ccccc31)[C@@H](CO)N2Cc1cccnc1
-3	-5	2.3	CCS(=O)(=O)N1CC2(C1)[C@H](c1ccccc1)[C@@H](CO)N2CCC(F)(F)F
1	-2	2.8	C[C@H](CO)N1C[C@H](C)[C@@H](CN(C)Cc2ccncc2)OCCCC[C@H](C)Oc2ccc(NC(=O)Cc3ccccc3)cc2C1=O
3	4	-0.9	CC(C)NC(=O)N1CC2(C1)[C@H](c1ccccc1)[C@H](CO)N2C(=O)c1ccccn1
2	0	1.8	O=C(C1CCOCC1)N1C[C@H]2[C@@H](c3ccccc31)[C@@H](CO)N2C(=O)c1ccccc1
-8	-7	-1.5	O=C(C[C@H]1C=C[C@@H](NC(=O)Nc2ccccc2F)[C@@H](CO)O1)NCc1ccc(-c2ccccc2)cc1
?	·	·	O=C(C[C@H]1C[C@@H]2c3cc(NC(=O)Nc4ccc(C(F)(F)F)cc4)ccc3O[C@@H]2[C@@H](CO)O1)NCCc1ccccc1
?	·	·	O=C1CN(S(=O)(=O)Cc2ccccc2)C[C@H]2[C@H](c3ccc(C#CCC4CCCC4)cc3)[C@@H](CO)N12
-1	1	-1.4	C[C@@H]1CCCCO[C@H](CN(C)C(=O)C2CCCCC2)[C@@H](C)CN([C@H](C)CO)C(=O)c2cc(NC(=O)c3ccncc3)ccc2O1
?	·	·	N#Cc1ccc(-c2ccc3c(c2)[C@H]2[C@H](CCN2C(=O)c2ccccc2F)[C@@H](CO)N3)cc1

More structures.
DUX4 inh	DUX4 inh difference	DUX4 inh control	structure
-7	4	-11	O=C(C[C@H]1C[C@@H]2c3cc(NC(=O)c4ccc5c(c4)OCO5)ccc3O[C@@H]2[C@@H](CO)O1)NCc1cc(F)ccc1F
2	1	0.5	CO[C@H]1CN(C)C(=O)c2ccc(NC(=O)c3ccccc3)cc2OC[C@H](C)N(C(=O)C2CC2)C[C@@H]1C
2	0	2.9	C[C@@H]1CN([C@H](C)CO)C(=O)c2cc(NS(=O)(=O)c3ccc(F)cc3)ccc2O[C@H]1CN(C)C(=O)Nc1ccccc1
2	-1	3.1	C[C@@H]1CN([C@@H](C)CO)C(=O)CCCn2cc(nn2)CO[C@@H]1CN(C)CC1CCCCC1
21	16	5.3	C[C@@H](O)C#Cc1ccc([C@H]2[C@H]3CN(C(=O)c4ccncc4)CCCCN3[C@H]2CO)cc1
19	43	-24	O=C(Nc1ccccc1)[C@H]1[C@H](CO)[C@H]2Cn3c(cccc3=O)[C@H]2N1C(=O)C1CC1
-1	2	-2.9	O=C(N[C@H]1CC[C@@H](CCn2cc(C3CC3)nn2)O[C@H]1CO)c1cccnc1
2	-4	5.3	CN1C(=O)c2cc(NC(=O)Cc3ccccc3)ccc2OC[C@H]2O[C@H](CC(=O)NCC3CC3)CC[C@H]21
-5	-7	1.8	CN1C(=O)c2cc(NC(=O)Cc3ccccc3)ccc2OC[C@@H]2O[C@@H](CC(=O)O)CC[C@@H]21
17	19	-2.0	COC(=O)N(C)C[C@H]1OCc2ccccc2-c2ccccc2C(=O)N([C@@H](C)CO)C[C@H]1C
8	7	1.3	COc1ccc(NC(=O)N2C[C@@H](O)COC[C@H]3O[C@H](CC(=O)NCc4ccncn4)CC[C@@H]32)cc1
1	-2	3.5	C[C@@H]1CN([C@@H](C)CO)C(=O)CCCn2cc(nn2)CO[C@@H]1CN(C)Cc1ccc2c(c1)OCO2

The results go on.
DUX4 inh	DUX4 inh difference	DUX4 inh control	structure
2	4	-1.4	CO[C@@H]1CN(C)C(=O)c2cc(NC(=O)c3ccccc3F)ccc2OC[C@@H](C)NC[C@@H]1C
6	2	4.2	CC(C)NC(=O)Nc1ccc2c(c1)C(=O)N([C@H](C)CO)C[C@H](C)[C@H](CN(C)C(=O)C1CCCCC1)OCCCC[C@H](C)O2
-9	-4	-5.3	CO[C@@H]1CN(C)C(=O)c2cc(NC(=O)C3CC3)ccc2OC[C@@H](C)N(Cc2cc(F)ccc2F)C[C@@H]1C
-1	-7	5.4	CCC(=O)N1CC2(CN(Cc3ccc(F)cc3)C2)c2c(n(C)c3cc(OC)ccc23)[C@@H]1CO
1	-1	1.9	O=C(C[C@@H]1CC[C@@H](NC(=O)NC2CCCCC2)[C@H](CO)O1)NCc1ccccc1
-1	1	-1.8	CC(=O)N1[C@H](CN(C)S(=O)(=O)c2ccccc2)[C@H](c2ccccc2)[C@@H]1CO
4	2	2.0	COc1ccccc1NC(=O)N(C)C[C@@H]1OCc2cn(nn2)CCCC(=O)N([C@@H](C)CO)C[C@H]1C
2	2	0.6	O=S(=O)(c1ccc(F)cc1)N1C[C@@H]2[C@H](c3ccccc31)[C@@H](CO)N2Cc1ccc2c(c1)OCO2
4	-1	4.2	CO[C@@H]1CN(C)C(=O)c2ccc(NC(=O)NC(C)C)cc2OC[C@H](C)N(C(=O)NC(C)C)C[C@H]1C
?	·	·	C[C@H]1CN([C@@H](C)CO)C(=O)c2c(c3ccccc3n2C)-c2ccccc2CO[C@@H]1CN(C)S(=O)(=O)c1cccc(C#N)c1
8	-4	13	O=C(C[C@H]1CC[C@@H]2[C@H](COC[C@H](O)CN2C(=O)c2cnccn2)O1)NCc1ccc(Cl)cc1
12	-9	21	COc1ccc2c3c(n(C)c2c1)[C@H](CO)N(C(=O)c1ccncc1)CC31CN(C)C1

The listing continues.
DUX4 inh	DUX4 inh difference	DUX4 inh control	structure
3	3	-0.1	CCC(=O)N1[C@@H]2Cn3c(ccc(-c4ccccc4)c3=O)[C@H]1[C@@H](C(=O)N1CCc3ccccc3C1)[C@@H]2CO
0	1	-0.8	COc1cccc(C(=O)N2C[C@@H]3[C@H](c4ccccc42)[C@@H](CO)N3C(C)=O)c1
1	0	0.1	C[C@@H]1CN([C@@H](C)CO)C(=O)c2cc(NS(=O)(=O)c3cn(C)cn3)ccc2O[C@@H](C)CCCCO[C@H]1CN(C)S(=O)(=O)c1ccc(Cl)cc1
10	7	3.4	CC(=O)N1CC2(C1)[C@@H](c1ccc(-c3ccc(C#N)cc3)cc1)[C@@H](CO)N2C(C)=O
?	·	·	COc1ccc2c3c([nH]c2c1)[C@@H](CO)N(C(=O)Nc1ccc(F)cc1)CC31CN(S(=O)(=O)c2cccs2)C1
?	·	·	COc1cccc(C(=O)Nc2ccc3c(c2)OC[C@@H](C)N(CCc2ccccc2)C[C@H](C)[C@@H](OC)CN(C)C3=O)c1
19	-12	31	COc1ccc2c3c([nH]c2c1)[C@@H](CO)N(C(=O)c1ccncc1)CC31CCN(C(=O)C2CCC2)CC1

A portion of the library; rates above refer to the full screens.
